# Screens from PubChem.
# CSC inhib: blocks cancer stem cells | 1.1% of 300,000 active | cancer stem cell-like cells viability, luminescence | AID 2717 | inhibition, % at 7.5 µM;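 active means mean at 75% or more and at least half the replicates too; inconclusive means mean and replicates disagree; tested in HMLE shEcad cells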;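 further: 0% = median of negative and 100% = median of positive control wells; the first replicate is given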
# eIF4H FP inh: inhibitors of RNA binding by human eIF4H; eIF4H fluorescence polarization binding assay; inhibition, % at 35 µM; 0.94% of 290,000 active; AID 2012;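 active means 50% or more with normal probe brightness, or confirmed in later tests; inconclusive means above 50% with abnormal brightness, or retests that disagree; inactive means below 50% or failed in later tests; about a fifth of its hits are not listed in these tables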;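 further: calls also rest on retests at 20 µM and on dose response follow-up; 0% = protein and probe with vehicle and 100% = probe without protein; strong numbers were not always called active; many hits fall short of the cut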
# PABP FP inh: blocks human PABP binding to poly(A) RNA; 1% of 290,000 active; fluorescence polarization; inhibition, % at 35 µM; P11940;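 active means 50% or more with normal probe brightness, or confirmed in later tests; inconclusive means above 50% with abnormal brightness, or retests that disagree; inactive means below 50% or failed in later tests; about a fifth of its hits are not listed in these tables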;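 further: calls also rest on retests at 20 µM and on dose response follow-up; controls were probe without protein and protein plus probe with vehicle; some compounds called inactive have numbers as strong as hits; many hits fall short of the cut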
# Rce1 inh: blocks yeast Ras-converting enzyme. calls only. yeast membranes, quenched prenylated peptide cleavage fluorescence. 0.27% of 290,000 active. AID 2563. Q03530;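 active means fall in fluorescence gain of 50% or more versus controls, with final raw signal at or below 3038400; inconclusive means same 50% fall but final raw signal above 3038400; inactive means fall in fluorescence gain under 50%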;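 further: plate controls were neutral control wells for no effect and wells lacking membranes for full effect; tested at 10 µM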
# Target sequence (Q03530 whole entry, looked up): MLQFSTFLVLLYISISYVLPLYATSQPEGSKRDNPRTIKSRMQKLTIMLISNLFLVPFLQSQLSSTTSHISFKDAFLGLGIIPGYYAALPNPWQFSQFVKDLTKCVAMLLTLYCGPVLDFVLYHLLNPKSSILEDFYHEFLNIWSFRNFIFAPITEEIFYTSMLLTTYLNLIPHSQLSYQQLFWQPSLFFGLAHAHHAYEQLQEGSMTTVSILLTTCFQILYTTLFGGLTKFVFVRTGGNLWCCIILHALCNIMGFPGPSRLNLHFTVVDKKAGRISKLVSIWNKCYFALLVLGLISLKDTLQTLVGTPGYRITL
# Yeast UUG start: modulators of start codon recognition fidelity in yeast. S. cerevisiae UUG-firefly luciferase reporter, luminescence/redox ratio. activity score, % at 18.7 µM. 0.13% of 350,000 active. AID 602363;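 active means replicate mean at a twofold rise or more, about +100% in these data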;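 further: firefly luciferase made from a UUG start codon reports start codon fidelity; reporter light over untreated wells divided by growth signal over untreated wells; some hits fall short of that in this replicate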
# MT1-MMP act inh: MT1-MMP (human) activation inhibition. HT1080 RFP-PRO-GFP cells, GFP/RFP ratio fluorescence, overnight; percent of plate control window, DMSO zero. GFP/RFP ratio change, % at 20 µM. 0.061% of 360,000 active. AID 651647;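 active means GFP/RFP ratio change of at least 30% with cell ATP level not reduced by more than half and red fluorescence within 50% of control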; further: strong numbers were not always called active
#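 Compound: 20 µM single dose, 1% DMSO / System: HT1080 RFP-PRO-GFP cells / Controls: DMSO and RFP-L50D-GFP cell wells / Read-out basis: GFP/RFP fluorescence ratio / Schedule: overnight compound exposure at 37 °C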
# HIV Env fusion: inhibitors of HIV Env-mediated cell fusion; HeLa-JRFL Env/CEM21 cell fusion, luciferase; inhibition, % at 12.3 µM; 1.1% of 360,000 active; AID 651610;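 active means mean replicate inhibition score of at least 50 and every replicate individually at or above 50; inconclusive means only one of the two criteria met; inactive means mean below 50 and not all replicates reaching 50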;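 further: 0% = plate neutral controls and 100% = maraviroc near 300 nM; one replicate is shown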
# MT1-MMP act inh RFP: further read-out of MT1-MMP act inh, marked with its call; RFP signal change, %; measured here: RFP expression control read;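 0 = vehicle wells; hits needed this value within 50% of zero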
# An asterisk follows results filed as active; i = inactive; u = inconclusive; x = not tested or not shown; & = joins results of further samples.
SMILES,CSC inhib,eIF4H FP inh,PABP FP inh,Rce1 inh,Yeast UUG start,MT1-MMP act inh,MT1-MMP act inh RFP,HIV Env fusion
Cc1ccc(C2Nc3ccccc3NC3=C2C(=O)OC(C)C3)cc1 (stereo unspecified),-8,-11,5,i,x,10,6,x
C#CCNc1cc(C)nc2ncnn12,2,-6,4,i,-19,3,3,-8
COc1cccc(NC(=O)C(C)N2C(=O)c3ccccc3S2(=O)=O)c1 (stereo unspecified),-6,x,x,i,x,0,1,4
COc1ccc(/C=N/Nc2nncc3ccccc23)c(OC)c1,1,-7,21,i,x,1,5,-25
Cc1ccc(C(CCNC(C)c2cccs2)c2ccco2)cc1 (stereo unspecified),11,-5,-8,i,x,-3,-3,66*
O=C1CNC(=O)/C1=C\N1CCN(C(c2ccccc2)c2ccccc2)CC1,-2,10,3,i,-2,-22,-7,x
CCOc1nc(NC2CCCC2)nc(N2CCC(C)CC2)n1,9,-2,-1,i,7,-2,-12,14
COc1ccc(OC)c(NC(=O)CN(c2ccc(C)cc2)S(=O)(=O)c2c(C)n[nH]c2C)c1,5,-15,2,i,1,-3,-1,16
COc1ccc(NC(=O)Nc2cccnc2)cc1,3,-1,-2,i,-10,2,2,3
COc1cccc(NC(=O)Nc2ccc3nc(C)c(C)nc3c2)c1,-2,-16,1,x,-13,-7,-8,20
CCCCCNC(=O)C1c2ccccc2Oc2ccccc21,-8,3,-9,i,x,1,1,4
Cc1cccc(C(=O)NC(=S)Nc2ccc(Cc3ccncc3)cc2)c1,37,-11,6,i,-20,-1,-13,-54
Cc1ccc(S(=O)(=O)NNC(=O)C(=O)NNc2ccccn2)cc1,19,18,0,i,-15,7,3,x
CSc1nnc(SCC(=O)Nc2ccc3[nH]c(=O)[nH]c3c2)s1,-11,x,x,x,-15,2,1,x
CCOc1c(CNCc2ccc(C(=O)O)cc2)cccc1OC,-5,3,-3,i,x,2,3,2
COc1cccc(CNc2nc(NCc3cccs3)nc3ccsc23)c1,x,x,x,x,-10,-4,-25,u
O=C(c1cc(-c2ccc(Br)cc2)nc2ccccc12)N1CCC1,-1,x,x,i,-12,3,-2,7
Cc1cc(C)c2c(-c3ccc(F)cc3)c(C#N)c(=O)n(C)c2n1,-6,-2,-5,i,-6,2,4,-7
O=C(CCCC(=O)c1ccc(F)cc1)c1ccc(F)cc1,-15,-1,2,i,-32,1,2,-37
Cc1cccc(N=Nc2c(N)n[nH]c2N)c1,-13,-7,-2,i,-21,4,1,-2
CCOc1ccccc1NC(=S)NCc1cccn1C,-9,2,2,i,x,-1,0,-10
Cc1csc(SCC(=O)NC(=O)c2ccccc2)n1,-13,x,x,i,-26,2,5,0
Cc1nc2c(o1)CCc1ccccc1C2O (stereo unspecified),9,-2,6,i,-3,0,3,-72
COC(=O)c1c(NC(=O)CSc2nc3ccccc3c(=O)n2Cc2ccco2)sc(C)c1C,x,-12,-5,i,x,-6,-5,-6
O=C(CSc1ccccn1)Nc1nc2ccccc2s1,-6,-12,-7,i,x,1,4,-6

# Single records, from the list above. Order of values: CSC inhib | eIF4H FP inh | PABP FP inh | Rce1 inh | Yeast UUG start | MT1-MMP act inh | MT1-MMP act inh RFP | HIV Env fusion
# Listed for CCOc1ccccc1NC(=S)NCc1cccn1C : -9 | 2 | 2 | i | x | -1 | 0 | -10
# Listed for Cc1cc(C)c2c(-c3ccc(F)cc3)c(C#N)c(=O)n(C)c2n1 : -6 | -2 | -5 | i | -6 | 2 | 4 | -7

# Carrying on:
SMILES,CSC inhib,eIF4H FP inh,PABP FP inh,Rce1 inh,Yeast UUG start,MT1-MMP act inh,MT1-MMP act inh RFP,HIV Env fusion
Cc1cccc(NC(=O)c2cnc3sccn3c2=O)c1C,x,3,-8,i,-21,5,-5,-69
Cc1c(C(=O)OC(C)C)sc(NC(=O)c2cnccn2)c1C(=O)OC(C)C,x,x,x,x,-13,1,3,-2
Cc1cc(-c2n[nH]c(=S)n2/N=C/c2ccc(Br)s2)n[nH]1,8,-3,-5,i,-3,2,5,-17
CN1CCN(C(=O)C2=C[C@H](c3ccccc3)C[C@H](OCc3ccc(CO)cc3)O2)CC1,-12,2,6,i,-1,-4,6,-92
Cc1n[nH]c(=O)c2c(NC(=O)COC(=O)/C=C/c3cccc(C(F)(F)F)c3)oc(C)c12,-8,x,x,i,x,7,5,0
CSc1nc(NC(C)(C)C)nc(Oc2ccc(=O)[nH]n2)n1,-4,-6,-14,i,-19,-2,0,-21
CCC(=O)c1ccccc1OCCCn1cncn1,x,0,-6,x,-26,-1,0,x
CCOc1c(C)cc(-c2ncccc2O)cc1C,3,-3&-3,10&23,i,-22&-12,0&-1,4&-5,-105&-17
CN(C)C(=O)NC1CCCCCCCCCCC1,-3,2,6,i,-18,-1,-5,x
COCCCn1c(SCC(=O)N2CCc3ccccc32)nnc1-c1ccco1,12,-1,13,x,x,3,4,-34
COC(=O)c1ccc(C)c(NC(=O)C(CCSC)NC(=O)c2cc(OC)c(OC)c(OC)c2)c1 (stereo unspecified),-11,-5,-16,i,x,3,-1,11
COc1ccc2ccccc2c1/C=N/O,-7,-6,2,i,-7,2,2,-48
COc1ccccc1NC(=O)CSc1nc(O)cc(=O)n1-c1ccccc1OC,-6,-9,-11,i,-12,9,5,0
CCOc1ccc(NC(=O)CSc2nnc(CNC(=O)c3ccco3)o2)cc1,-24,2,8,i,x,1,3,14
O=S(=O)(c1ccc2c(c1)OCCO2)N1CCN(S(=O)(=O)c2ccccn2)CC1,x,x,x,x,-18,3,2,8
COc1ccc(N/N=C(/C#N)S(=O)(=O)C(C)(C)C)cc1,-12,-1,-9,i,x,-1,3,1
Cc1cccc(OCCSc2nncn2C)c1,-8,-4,-5,i,5,5,1,-2
CN(C)c1ccc(-c2ccnc3c2CC(C)(C(=O)Nc2cccc(OC(F)(F)F)c2)O3)cc1 (stereo unspecified),x,x,x,x,-9,0,3,-6
CCCn1c(SCC(=O)NCCc2ccccc2)nnc1C(C)C,-2,0,11,i,-18,-1,2,-17
C=CCOc1c(Br)cc(CNc2ccc(NC(=O)C(C)C)c(OC)c2)cc1OC,-2,18,17,i,8,-10,-7,90*
COc1ccccc1NS(=O)(=O)c1cc(NC(=O)Nc2ccc(Cl)cc2Cl)ccc1N1CCCCC1,38,2,4,i,-17,-10,-14,25
COC(=O)[C@]1(C)N[C@H](CN(C)C(=O)Nc2ccc(F)cc2)[C@@H]2C(=O)N(C)C(=O)[C@@H]21,x,x,x,x,-16,1,2,-13
COCCCNC(=O)COc1ccc2oc3c(c2c1)CCCC3,-11,-5,1,i,-22,1,0,7
CC(C)Oc1ccc(CCNC(=O)C2CCC(=O)N(C3CCCCCC3)C2)cc1 (stereo unspecified),-4,-2,-2,i,-21,-2,-4,3
O=C(CSc1ccccn1)Nc1nc2c(ccc3ccccc32)s1,-8,3,-5,i,x,0,1,8

# Reprinted from above, 2 compounds:
SMILES,CSC inhib,eIF4H FP inh,PABP FP inh,Rce1 inh,Yeast UUG start,MT1-MMP act inh,MT1-MMP act inh RFP,HIV Env fusion
Cc1cccc(NC(=O)c2cnc3sccn3c2=O)c1C,x,3,-8,i,-21,5,-5,-69
Cc1c(C(=O)OC(C)C)sc(NC(=O)c2cnccn2)c1C(=O)OC(C)C,x,x,x,x,-13,1,3,-2

# Some entries already given with just Yeast UUG start, PABP FP inh and HIV Env fusion:
compound	Yeast UUG start	PABP FP inh	HIV Env fusion
CN(C)C(=O)NC1CCCCCCCCCCC1	-18	6	x
COCCCn1c(SCC(=O)N2CCc3ccccc32)nnc1-c1ccco1	x	13	-34
COC(=O)c1ccc(C)c(NC(=O)C(CCSC)NC(=O)c2cc(OC)c(OC)c(OC)c2)c1 (stereo unspecified)	x	-16	11

# Other compounds:
SMILES,CSC inhib,eIF4H FP inh,PABP FP inh,Rce1 inh,Yeast UUG start,MT1-MMP act inh,MT1-MMP act inh RFP,HIV Env fusion
CCOc1ccc(Cl)cc1CSc1n[nH]c(CC)n1,x,-4,-1,i,-8,5,0,11
CCC(=O)Nc1ccc(C(=O)NNC(=O)c2cccc(C)c2)cc1,-9,-1,-18,i,6,2,2,4
O=C(CCN1C(=O)/C(=C/c2ccc3c(c2)OCO3)SC1=S)Nc1ccccc1,-10,-7,-2,i,-7,-6,8,21
Cc1ccc(OCC(=O)NC2CCCCCC2)cc1C,1,4,-6,i,9,-3,-1,1
O=C(Oc1ccc(N(Cc2cccs2)C2=NS(=O)(=O)c3ccccc32)cc1)c1ccccc1,5,4,-2,x,-12,1,-7,-19
O=C(NCC1(c2ccccc2)CCCC1)C(=O)N1CCOCC1,10,-13,13,x,-12,-8,-2,-10
CCOC(=O)C1=C(Cn2cnc3ccccc32)NC(=O)NC1c1ccc(OC)cc1 (stereo unspecified),x,-5,-2,i,-19,1,-3,23
O=C1c2cnc3ncnn3c2CC2c3ccccc3CCN12 (stereo unspecified),-8,-8,-2,i,x,8,5,-27
CCN(CC)c1ccc(-n2c(C)c(C(C)=O)c(C(C)=O)c2C)cc1,-7,-7,1,i,10,0,-10,59
COc1cc(NC(=O)[C@@H](NC(=O)c2ccco2)C(C)C)c(OC)cc1NC(=O)c1ccccc1,1,-2,2,i,2,0,-2,4
COc1ccc(N/N=C(\C#N)C(=N)SCc2ccccc2)cc1,x,-9,-1,i,x,-2,-7,4
O=C(CN1C(=O)c2ccccc2S1(=O)=O)Nc1ncccn1,-18,x,x,i,7,3,4,2
CC(C)C[C@@H](CN)NC(=O)c1nc[nH]c1C(=O)N[C@@H](CC(C)C)C(=O)CNC[C@H](C)NC(=O)c1nc[nH]c1C(=O)N[C@@H](CC(=O)O)C(=O)O,x,x,x,x,-11,1,4,11
CN(C)CCCNc1nc2cc(-c3ccn[nH]3)sc2c(=O)n1C,x,x,x,x,-8,2,4,-5
O=C(NCCc1ccccc1)C(=O)NCC1OCCCN1S(=O)(=O)c1ccc(F)cc1 (stereo unspecified),-5,-7,-14,i,-6,0,1,-8
CCCC[C@@H]1CNC(=S)N1CCCc1cc(OC)c(OC)c(OC)c1,-9,-7,-8,i,-2,0,-2,-5
CN(NC1OC(=O)c2ccccc21)c1c([N+](=O)[O-])cc(C(F)(F)F)cc1[N+](=O)[O-] (stereo unspecified),6,2,10,i,-17,-1,1,-17

# In the list so far, seven have fluorine:
SMILES,CSC inhib,eIF4H FP inh,PABP FP inh,Rce1 inh,Yeast UUG start,MT1-MMP act inh,MT1-MMP act inh RFP,HIV Env fusion
Cc1cc(C)c2c(-c3ccc(F)cc3)c(C#N)c(=O)n(C)c2n1,-6,-2,-5,i,-6,2,4,-7
O=C(CCCC(=O)c1ccc(F)cc1)c1ccc(F)cc1,-15,-1,2,i,-32,1,2,-37
Cc1n[nH]c(=O)c2c(NC(=O)COC(=O)/C=C/c3cccc(C(F)(F)F)c3)oc(C)c12,-8,x,x,i,x,7,5,0
CN(C)c1ccc(-c2ccnc3c2CC(C)(C(=O)Nc2cccc(OC(F)(F)F)c2)O3)cc1 (stereo unspecified),x,x,x,x,-9,0,3,-6
COC(=O)[C@]1(C)N[C@H](CN(C)C(=O)Nc2ccc(F)cc2)[C@@H]2C(=O)N(C)C(=O)[C@@H]21,x,x,x,x,-16,1,2,-13
O=C(NCCc1ccccc1)C(=O)NCC1OCCCN1S(=O)(=O)c1ccc(F)cc1 (stereo unspecified),-5,-7,-14,i,-6,0,1,-8
CN(NC1OC(=O)c2ccccc21)c1c([N+](=O)[O-])cc(C(F)(F)F)cc1[N+](=O)[O-] (stereo unspecified),6,2,10,i,-17,-1,1,-17
